Compound activity (PubChem BioAssay)
Vaccinia stage = blocks a specific stage of Vaccinia orthopoxvirus infection, primary screen, cell-based, single point; AID 1053133, 2014; Vaccinia-infected cells, mCherry/Venus stage reporter fluorescence; hits give low values; some inactives read as strong as hits; 89,000 tested, 0.01% active; activity change (mCherry), % (test concentration not listed);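 active means mCherry past -33% and 40 or more points under the early reporter, replicates agreeing; inconclusive means past -33% without that gap or agreement; tested in A549 cells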;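 further: scaled between vehicle wells and reference inhibitor wells; 23 nL library stock went into each well; one replicate is shown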
Vaccinia stage Venus = further read-out of Vaccinia stage, marked with its call; activity change (Venus), %; measured here: Venus reporter, other viral stage;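 negative = less Venus signal; first of two replicates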
Starred values were filed as active, the others as inactive; ? = inconclusive; nt = not tested or not shown; & = joins results of further samples. This is a subset, so the mix of outcomes need not match the whole.

Start of the data: the first 4 records (preview)
Second line of a record – Vaccinia stage | Vaccinia stage Venus
- C[C@@H]1CCCCO[C@H](CN(C)C(=O)c2ccncc2)[C@H](C)CN([C@@H](C)CO)C(=O)c2cc(N(C)C)ccc2O1
  -5 | 8
- Cc1noc(C)c1NC(=O)Nc1ccc2c(c1)C(=O)N([C@@H](C)CO)C[C@@H](C)[C@@H](CN(C)Cc1ccc(C(F)(F)F)cc1)OCCCC[C@H](C)O2
  -15 | -18
- C[C@H](O)C#Cc1ccc([C@H]2[C@H]3CN(C(=O)c4ccncc4)CCCCN3[C@H]2CO)cc1
  23 | 12
- C[C@@H]1CCCCO[C@@H](CN(C)C(=O)CCC(F)(F)F)[C@H](C)CN([C@H](C)CO)C(=O)c2cc(NC(=O)NC3CCCCC3)ccc2O1
  -23 | -17

The list itself (from the top)
Second line of a record – Vaccinia stage | Vaccinia stage Venus
- C[C@@H]1CCCCO[C@H](CN(C)C(=O)c2ccncc2)[C@H](C)CN([C@@H](C)CO)C(=O)c2cc(N(C)C)ccc2O1
  -5 | 8
- Cc1noc(C)c1NC(=O)Nc1ccc2c(c1)C(=O)N([C@@H](C)CO)C[C@@H](C)[C@@H](CN(C)Cc1ccc(C(F)(F)F)cc1)OCCCC[C@H](C)O2
  -15 | -18
- C[C@H](O)C#Cc1ccc([C@H]2[C@H]3CN(C(=O)c4ccncc4)CCCCN3[C@H]2CO)cc1
  23 | 12
- C[C@@H]1CCCCO[C@@H](CN(C)C(=O)CCC(F)(F)F)[C@H](C)CN([C@H](C)CO)C(=O)c2cc(NC(=O)NC3CCCCC3)ccc2O1
  -23 | -17
- COc1ccc(S(=O)(=O)Nc2ccc3c(c2)C(=O)N([C@H](C)CO)C[C@@H](C)[C@H](CN(C)S(=O)(=O)c2cn(C)cn2)OCCCC[C@@H](C)O3)cc1
  29 | 18
- COc1ccc(NC(=O)Nc2ccc3c(c2)[C@H]2C[C@@H](CC(=O)NCc4ccccc4F)O[C@@H](CO)[C@H]2O3)cc1
  -1 | -10
- CN1[C@H](C(=O)NCC2CCCCC2)[C@@H](CO)[C@@H]2Cn3c(cccc3=O)[C@@H]21
  8 | 4
- N#C[C@H]1[C@H](c2ccc(C#CC3CCCCC3)cc2)[C@@H](CO)N1C(=O)Nc1ccc(F)cc1
  ? | nt
- C[C@H](CO)N1C[C@H](C)[C@H](CN(C)C(=O)C2CC2)Oc2cc(C#CC3CC3)ccc2S1(=O)=O
  -12 | -9
- Cc1ccc(S(=O)(=O)Nc2ccc3c(c2)C(=O)N([C@H](C)CO)C[C@@H](C)[C@H](CN(C)Cc2ccc4c(c2)OCO4)OCCCC[C@@H](C)O3)cc1
  ? | nt
- CC=Cc1ccc2n(c1=O)C[C@@H]1[C@@H](CO)[C@H](C(=O)NCCc3cn(C)cn3)[C@H]2N1C(=O)CC (mixture of isomers)
  1 | 0
- COC(=O)C[C@H]1CC[C@@H](N)[C@H](CO)O1
  4 | 6
- CCNC(=O)[C@@H]1[C@@H](CO)[C@@H]2Cn3c(ccc(-c4ccc(OC)cc4)c3=O)[C@H]1N2CC1CC1
  11 | 11
- COc1ccc(CN2CC3(CN(Cc4ccccc4OC)C3)c3c([nH]c4cc(OC)ccc34)[C@H]2CO)cc1
  2 | 1
- C[C@@H]1CN([C@H](C)CO)C(=O)c2cccc(NC(=O)Nc3cccc4ccccc34)c2O[C@@H]1CN(C)C(=O)Nc1ccccc1
  -18 | -11
- C[C@H](CO)N1C[C@H](C)[C@@H](CN(C)C(=O)C2CCC2)Oc2ncc(C#Cc3cccc(F)c3)cc2C1=O
  -10 | -7
- C[C@H](CO)N1C[C@H](C)[C@@H](CN(C)Cc2ccncc2)Oc2c(NS(=O)(=O)c3ccccc3)cccc2C1=O
  13 | 13
- CCC(=O)N1C[C@H](C)[C@@H](OC)CN(C)C(=O)c2cc(NC(=O)Nc3ccc(Cl)cc3)ccc2OC[C@H]1C
  -13 | -5
- CO[C@@H]1CN(C)C(=O)c2cc(NC(C)=O)ccc2OC[C@@H](C)N(Cc2ccccc2C(=O)O)C[C@@H]1C
  21 | 17
- Cc1ccc(S(=O)(=O)N(C)C[C@H]2Oc3c(NS(=O)(=O)c4ccc(Cl)cc4)cccc3C(=O)N([C@H](C)CO)C[C@@H]2C)cc1
  13 | 13
- O=C(C[C@@H]1C=C[C@H](NC(=O)C2CC2)[C@@H](CO)O1)NCC1CC1
  1 | 0
- C[C@@H]1CCCCO[C@@H](CN(C)C(=O)Cc2ccccc2)[C@@H](C)CN([C@H](C)CO)C(=O)c2cc(NS(=O)(=O)c3ccc(F)cc3)ccc2O1
  -14 | -11
- Cc1noc(C)c1NC(=O)Nc1ccc2c(c1)C(=O)N([C@@H](C)CO)C[C@H](C)[C@H](CN(C)Cc1ccc(C(F)(F)F)cc1)OCCCC[C@H](C)O2
  ? | nt
- C[C@@H]1CN([C@H](C)CO)C(=O)c2cc(NC(=O)Nc3ccc4c(c3)OCO4)ccc2O[C@H]1CN(C)S(=O)(=O)c1ccc(Cl)cc1
  1 | -7
- CO[C@@H]1CN(C)C(=O)c2cc(NC(=O)C3CC3)ccc2OC[C@H](C)N(C(C)=O)C[C@@H]1C
  14 | 12
- O=C(N[C@H]1CC[C@@H](CC(=O)N2CCOCC2)O[C@H]1CO)c1ccccn1
  14 | 12
- C[C@@H]1CN([C@@H](C)CO)C(=O)c2cc(-c3ccc(C(=O)N(C)C)cc3)cnc2O[C@H]1CN(C)C(=O)C1CC1
  -1 | -3
- CCCC(=O)Nc1ccc2c(c1)C(=O)N(C)[C@H]1CC[C@H](CC(=O)OC)O[C@@H]1CO2
  1 | 5
- C[C@@H]1CN([C@@H](C)CO)S(=O)(=O)c2ccc(-c3cccnc3)cc2O[C@H]1CN(C)CC1CCOCC1
  10 | 4
- C[C@@H]1CN([C@@H](C)CO)C(=O)c2cc(N(C)C)ccc2O[C@H]1CN(C)Cc1ccc(C(=O)Nc2ccccc2N)cc1
  -22 | -13

New compounds follow
Structure | Vaccinia stage | Vaccinia stage Venus
CCC(=O)N(C)C[C@H]1Oc2ncc(C#Cc3ccncc3)cc2C(=O)N([C@H](C)CO)C[C@H]1C | 1 | -1
CO[C@@H]1CN(C)C(=O)c2cc(NC(=O)C3CC3)ccc2OC[C@H](C)N(Cc2ccncc2)C[C@H]1C | -16 | -19
COCC(=O)NC[C@H]1[C@H](c2ccc(-c3ccccc3)cc2)[C@H](CO)N1C(C)=O | 4 | 1
CCC(=O)N1CC2(C1)[C@@H](c1ccccc1)[C@H](CO)N2CCC(F)(F)F | 4 | 5
CC(C)(C)[C@H]1C=C(C(=O)N2CCOCC2)O[C@@H](OCCCCO)C1 | 14 | 9
O=C(O)C[C@@H]1CC[C@@H](NC(=O)c2ccccc2F)[C@H](CO)O1 | 2 | -2
O=C(N[C@H]1CC[C@H](CCNS(=O)(=O)c2ccc(Cl)cc2)O[C@@H]1CO)c1ccccn1 | -10 | -1
N#C[C@H]1[C@H](c2ccc(-c3ccc(F)cc3)cc2)[C@@H](CO)N1C(=O)Cc1ccccc1 | ? | nt
CCNC(=O)[C@@H]1[C@@H](CO)[C@@H]2Cn3c(ccc(-c4ccc(F)cc4)c3=O)[C@@H]2N1CC1CC1 | 3 | 8
COc1ccccc1-c1cnc2c(c1)C(=O)N([C@@H](C)CO)C[C@H](C)[C@@H](CN(C)C(=O)c1ccccc1)O2 | -2 | 2
CO[C@@H]1CN(C)C(=O)c2ccc(NS(C)(=O)=O)cc2OC[C@@H](C)N(C(=O)C2CC2)C[C@H]1C | 9 | 4
CCCNC(=O)N1CC2(CCN(C(=O)c3cccnc3)CC2)c2c([nH]c3cc(OC)ccc23)[C@@H]1CO | 14 | -8
CC(C)C#Cc1cnc2c(c1)C(=O)N([C@@H](C)CO)C[C@H](C)[C@H](CN(C)Cc1cncnc1)O2 | 3 | 1
C[C@H](CO)N1C[C@H](C)[C@H](CN(C)S(=O)(=O)c2ccc(F)cc2)Oc2ccc(NS(=O)(=O)c3ccc(Cl)cc3)cc2CC1=O | -3 | -5
CCCNC(=O)Nc1ccc2c(c1)OC[C@H](C)N(C(=O)CC)C[C@@H](C)[C@H](OC)CN(C)C2=O | -4 | -3
O=C(c1ccc(F)cc1)N1CC(=O)N2[C@@H](CO)[C@H](c3ccc(C#CC4CC4)cc3)[C@@H]2C1 | 3 | -1

The closing two records of the part before open the next one:
Structure | Vaccinia stage | Vaccinia stage Venus
CCCNC(=O)Nc1ccc2c(c1)OC[C@H](C)N(C(=O)CC)C[C@@H](C)[C@H](OC)CN(C)C2=O | -4 | -3
O=C(c1ccc(F)cc1)N1CC(=O)N2[C@@H](CO)[C@H](c3ccc(C#CC4CC4)cc3)[C@@H]2C1 | 3 | -1
Cc1noc(C)c1S(=O)(=O)Nc1ccc2c(c1)C(=O)N([C@H](C)CO)C[C@@H](C)[C@@H](CN(C)Cc1ccc3c(c1)OCO3)OCCCC[C@@H](C)O2 | ? | nt
CO[C@H]1CN(C)C(=O)c2ccc(NC(C)=O)cc2OC[C@@H](C)N(CC2CC2)C[C@H]1C | 5 | 11
COc1ccc(S(=O)(=O)N(C)C[C@H]2Oc3ccc(NC(=O)c4ccncc4)cc3CC(=O)N([C@H](C)CO)C[C@@H]2C)cc1 | 7 | -1
COc1ccc(NC(=O)N2CCCCN3[C@H](CO)[C@H](c4ccc(C#Cc5ccccc5)cc4)[C@@H]3C2)cc1 | -30 | -21
COc1ccc(S(=O)(=O)N(C)C[C@@H]2Oc3cc(C#CC4CCCCC4)ccc3S(=O)(=O)N([C@@H](C)CO)C[C@@H]2C)cc1 | -31&-11 | -36&-6
C[C@@H]1CN([C@H](C)CO)C(=O)c2cccc(NC(=O)c3nc4ccccc4s3)c2O[C@H]1CN(C)C(=O)Nc1ccc2c(c1)OCO2 | 42 | 16
C[C@@H]1CCCCO[C@H](CN(C)C(=O)CCCN(C)C)[C@@H](C)CN([C@H](C)CO)C(=O)c2cc(NC(=O)Nc3cccc4ccccc34)ccc2O1 | 33 | 12
CO[C@@H]1CN(C)C(=O)c2cc(NC(=O)c3ccccc3)ccc2OC[C@H](C)N(C(=O)C2CC2)C[C@H]1C | 5 | 16
C/C=C/c1ccc([C@H]2[C@@H](CO)N3CCCCN(C(=O)Cc4ccncc4)C[C@@H]23)cc1 | -2 | -10
C[C@@H]1CN([C@H](C)CO)C(=O)c2cc(NC(=O)Cc3cn(C)c4ccccc34)ccc2O[C@@H]1CN(C)C(=O)Nc1ccc2c(c1)OCO2 | 7 | 2
COc1ccc(NC(=O)Nc2cccc3c2O[C@@H](CN(C)S(=O)(=O)c2ccccc2)[C@@H](C)CN([C@H](C)CO)C3=O)cc1 | -13 | -16
CCC(=O)N1Cc2cc(C(=O)N3CCN(C)CC3)nc(-c3cccc(-c4cccnc4)c3)c2[C@H]1CCO | 15 | 2
CN1C(=O)c2cc(NC(=O)C3CC3)ccc2OC[C@@H]2O[C@H](CC(=O)NCCN3CCCC3)CC[C@H]21 | -3 | -9
CC(C)CC#Cc1ccc2c(c1)O[C@@H](CN(C)C(=O)C1CCCCC1)[C@H](C)CN([C@@H](C)CO)S2(=O)=O | ? | nt
C[C@@H]1CCCCO[C@H](CN(C)C(=O)Nc2ccc3c(c2)OCO3)[C@@H](C)CN([C@H](C)CO)C(=O)c2cc(NS(=O)(=O)c3ccc(Cl)cc3)ccc2O1 | -7 | -21
C[C@@H]1CN([C@@H](C)CO)C(=O)c2cc(NC(=O)Cc3cn(C)c4ccccc34)ccc2O[C@H]1CN(C)Cc1ccncc1 | 8 | -3
CCCN(C)C[C@@H]1Oc2ncc(C#CCOC)cc2C(=O)N([C@H](C)CO)C[C@@H]1C | 41 | 23
C[C@@H]1CCCCO[C@@H](CN(C)C(=O)Nc2ccc(F)cc2)[C@H](C)CN([C@H](C)CO)C(=O)c2cc(NC(=O)CCCN(C)C)ccc2O1 | 5 | 15
C[C@@H]1CCCCO[C@@H](CN(C)C(=O)C2CCCCC2)[C@H](C)CN([C@H](C)CO)C(=O)c2cc(NC(=O)Cc3ccccc3)ccc2O1 | ? | nt
C[C@@H]1CN([C@H](C)CO)C(=O)c2cc(NS(C)(=O)=O)ccc2O[C@@H](C)CCCCO[C@H]1CN(C)S(=O)(=O)c1cccs1 | 9 | 0
C[C@H](CO)N1C[C@H](C)[C@H](CN(C)C(=O)C2CC2)Oc2cc(C#Cc3cccnc3)ccc2S1(=O)=O | 14 | 6
CCCC(=O)Nc1ccc2c(c1)C(=O)N(C)C[C@@H](OC)[C@H](C)CN(Cc1ccccn1)[C@@H](C)CO2 | 1 | 2
COCC(=O)N1C[C@H](C)[C@H](OC)CN(C)C(=O)c2cc(NS(C)(=O)=O)ccc2OC[C@H]1C | -4 | 1
CO[C@@H]1CN(C)C(=O)c2cc(NS(=O)(=O)c3cn(C)cn3)ccc2OC[C@H](C)NC[C@H]1C | 3 | 2
CCCNC(=O)N1C[C@@H](C)[C@H](OC)CN(C)C(=O)c2cc(NC(=O)CCC)ccc2OC[C@H]1C | 5 | 3
C[C@@H]1CN([C@@H](C)CO)C(=O)c2cc(NC(=O)C3CCCCC3)ccc2O[C@@H](C)CCCCO[C@@H]1CN(C)Cc1ccncc1 | 24&-4 | 14&-5
C[C@@H]1CCCCO[C@H](CN(C)S(=O)(=O)c2cccs2)[C@@H](C)CN([C@@H](C)CO)C(=O)c2cc(NS(C)(=O)=O)ccc2O1 | 19 | 6
COc1ccc(CN(C)C[C@H]2Oc3c(NC(=O)Nc4ccc5c(c4)OCO5)cccc3C(=O)N([C@H](C)CO)C[C@@H]2C)cc1 | -1 | -3
C[C@@H]1CN([C@H](C)CO)C(=O)c2cc(Br)cnc2O[C@H]1CN(C)S(=O)(=O)c1ccccc1 | 2 | -1
O=C(c1ccc(F)cc1)N1CC2(C1)[C@@H](c1ccccc1)[C@@H](CO)N2Cc1ccccn1 | 4 | 0
Cc1ccc(S(=O)(=O)N(C)C[C@@H]2OCCCC[C@H](C)Oc3ccc(NS(C)(=O)=O)cc3C(=O)N([C@@H](C)CO)C[C@@H]2C)cc1 | -3 | -2
C/C=C/c1cnc2c(c1)C(=O)N([C@H](C)CO)C[C@@H](C)[C@@H](CN(C)C(=O)Cc1cccnc1)O2 | 17 | 12
